Sa growth 42C = S. aureus growth inhibition at 42 and 30 °C, primary screen, LtaS inhibitor project, RN4220, two temperatures | OD600, 20 h, 42 °C; active compounds read low | relative growth, % (test concentration not listed) | actives 0.53% (n = 170,000) | AID 720641, 2013;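 active = growth at 42 °C up to 50% and 20 or more points under that at 30 °C, or under 10% at both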;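 note: 300 nL library stock went into each well; scaled to the means of positive and negative controls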
HCMV NEC inh = inhibitors of HCMV UL50-UL53 interaction, biochemical, HTRF. HCMV UL50-UL53 nuclear egress complex (human cytomegalovirus). normalized percent inhibition. inhibition, % (test concentration not listed). actives 0.15% (n = 190,000). AID 1918969, 2023;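 active = both replicates at 50% or more, plus weaker picks with an unusually low signal ratio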;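 note: stock transfer was 100 nL into about 20 µL; 0% = negative control wells and 100% = wells with untagged competitor protein; inactives centre near -12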
GIV Gai3 FP = inhibitors of GIV peptide binding to Galpha-i3, primary screen, biochemical, fluorescence polarization, FITC-GIV GBA peptide, rat Galphai3. Guanine nucleotide-binding protein G(i) subunit alpha-3 (Rattus norvegicus), P08753. 90 min; active compounds read low; scaled: aluminum fluoride 0%, vehicle 100%. percent of control (FP), % (no concentration beside the values). actives 0.42% (n = 210,000);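 active = replicate mean at 85% of control or lower, very high polarization wells dropped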;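 note: wells of about 15 µL received 100 nL stock; the first replicate is given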
Target sequence (P08753 whole entry, looked up): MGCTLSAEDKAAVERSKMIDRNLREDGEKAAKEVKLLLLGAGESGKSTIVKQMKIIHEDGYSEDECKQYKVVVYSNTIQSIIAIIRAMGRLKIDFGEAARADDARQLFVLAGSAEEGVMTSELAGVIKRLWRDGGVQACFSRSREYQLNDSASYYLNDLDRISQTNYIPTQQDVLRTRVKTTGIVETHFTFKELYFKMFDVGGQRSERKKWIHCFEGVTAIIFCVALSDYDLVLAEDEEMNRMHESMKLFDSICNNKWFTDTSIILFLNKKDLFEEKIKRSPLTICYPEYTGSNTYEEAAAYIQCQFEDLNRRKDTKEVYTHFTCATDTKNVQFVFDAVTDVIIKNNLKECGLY
Sa growth 42C second temp = further read-out of Sa growth 42C, marked with its call; relative growth, %; measured here: growth at 30 °C;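 optical density after 20 h as mean of two plates; 100% = untreated growth and lower means inhibition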
Numbers without * were called inactive; . = not tested or not shown; & = joins results of further samples. Rows were taken by chance; about 0.8% have a hit in one of these screens.

SMILES	Sa growth 42C	Sa growth 42C second temp	HCMV NEC inh	GIV Gai3 FP
COc1ccc(NC(=O)CC2C(=O)N(C)C(=S)N2CCNC(C)=O)cc1 (configuration not stated)	102	104	9	104
Cc1ccc2[nH]c(=O)c3cc(C(=O)N(CC(C)C)CC(C)C)sc3c2c1	100	87	.	100
CCNC(=S)N1CCN(S(=O)(=O)c2ccc(C)cc2)CC1	94	89	-4	.
Cc1ccc(N2C(=O)c3[nH]nc(-c4ccc(Br)cc4)c3C2c2ccco2)cc1 (configuration not stated)	107	91	-13	110
Fc1ccc(Oc2cnc3ccccc3n2)cc1	.	.	-8	112
COc1ccc(OCC(=O)N2CCN(C(=O)c3cccc(OC)c3OC)CC2)cc1	99	90	-36	106
O=C(CC(=O)Nc1cccnc1)Nc1cccnc1	.	.	-10	158
COc1cccc(-n2ccnc(SCC(=O)Nc3ccc(C)c(C)c3)c2=O)c1	.	.	-78	99
O=C(c1cncc(NS(=O)(=O)c2ccc(Cl)cc2)c1)N1CCN(Cc2ccccc2)CC1	103	77	.	102
N#Cc1c(Nc2ccccc2)s[nH]c1=O	75	40	-24	119
COc1ccccc1N1CCN(CC(O)COc2ccc(Cl)c(C)c2)CC1 (configuration not stated)	105	79	-29	97
O=C(Nc1ccccc1)Nc1nc(CC(=O)N2CCN(c3cccc(Cl)c3)CC2)cs1	.	.	-14	109
Cc1ccc(-n2ncc(C(=O)NCCCN3CCCCC3)c2C2CCN(C(=O)OC(C)(C)C)CC2)c(C)c1	120	84	.	108
CC(C)(O)C1(C)NCCc2ccccc21 (configuration not stated)	89	88	1	.
COc1cc(CN(C(=O)c2oc3ccccc3c2C)C2CCS(=O)(=O)C2)cc(OC)c1OC (configuration not stated)	99	85	-23	102

Laid out differently: entries from further up.
Structure,Sa growth 42C,Sa growth 42C second temp,HCMV NEC inh,GIV Gai3 FP
N#Cc1c(Nc2ccccc2)s[nH]c1=O,75,40,-24,119
COc1cc(CN(C(=O)c2oc3ccccc3c2C)C2CCS(=O)(=O)C2)cc(OC)c1OC (configuration not stated),99,85,-23,102

Carrying on.
SMILES	Sa growth 42C	Sa growth 42C second temp	HCMV NEC inh	GIV Gai3 FP
COC(=O)c1cn(CC(=O)Nc2ccc(S(=O)(=O)NC3=NCCCCC3)cc2)c2ccccc12	96	89	11	.
Cc1ccccc1-c1nc2c3c(-c4ccccc4)c(-c4ccccc4)oc3ncn2n1	92	87	-34	108
CC1=C(C(=O)Nc2ccc(C(=O)NCCN3CCOCC3)cc2)SCCO1	102	91	-27	105
Cn1c(C(=O)NC2CCCCCC2)cc2sc(Cl)cc21	109	95	-8	103
CCC(C)(C)n1nnnc1C(c1ccccc1OC)N1CCN(C(=O)c2ccco2)CC1 (configuration not stated)	100	91	-14	101
COc1ccc2[nH]cc(/C=C/c3nc4ccccc4c(=O)n3-c3ccccc3OC)c2c1	.	.	9	106
CCCN(CCC)C(=O)Cn1c(=O)n(-c2cccc(OC)c2)c(=O)c2c3c(sc21)CCCC3	106	92	-75	99
CCOC(=O)C1=C(N)N2C(=O)C(C)SC2=C(C(=O)OC)C1c1ccc(C)cc1 (configuration not stated)	109	83	1	105
CCC(C1=C(O)CC(C)(C)CC1=O)C1=C(O)CC(C)(C)CC1=O	93	83	-12	.
COc1ccc(NC(=O)c2cc3nccc(-c4ccc(C)cc4)n3n2)c(C)c1	.	.	-29	109
CCOC(=O)c1c(NC(=O)c2noc3c2CC(C(C)(C)C)CC3)sc2c1CCCC2 (configuration not stated)	97	93	10	104
N#CC1=C(N)C(C#N)(C#N)C(c2ccccc2)C2CCCC=C12 (configuration not stated)	73	70	-25	128
CC1CC(C)CN(C(=O)Cn2c(=O)n(Cc3ccc(C(=O)NCc4ccco4)cc3)c(=O)c3ccccc32)C1 (configuration not stated)	97	91	-2	105
CCCCSCCCNC(=O)c1cn(CC)c2ccc(S(=O)(=O)N(C)C3CCCCC3)cc2c1=O	92	71	-17	99
COc1cc2c(cc1OC)C(C)N(Cc1sc3ccccc3c1C)CC2 (configuration not stated)	108	89	-1	112
Cc1ccc2c(c1)c1c(n2CC2COC(C)(C)O2)C(=O)CCC1 (configuration not stated)	101	127	-10	102
Cc1nnc(NC(=O)c2ccc(S(=O)(=O)N3CCCC3)cc2)o1	80	67	-13	101
O=C(NCCc1ccc(Cl)cc1)c1ccc2c(c1)N(Cc1ccc(Cl)cc1)C(=O)CS2	115	91	-8	99
Cc1[nH]nc2c1C(c1cccnc1)N(C)C2=O (configuration not stated)	.	.	-15	105
N#Cc1ccc(CONC(=O)C23CC4CC(CC(C4)C2)C3)cc1	86	92	-7	.
Cc1ccc(NC(=O)Cn2c(=O)n(CCC(=O)NCc3ccccc3Cl)c(=O)c3ccccc32)c(C)c1	100	96	-28	102
Cc1cc(C)cc(NC(=O)Nc2cc(-c3ccccc3)nn2C)c1	120	87	0	108
COC(=O)c1cc2c(cc1NC(=O)c1ccc3c(=O)n4c(nc3c1)CCCCC4)OCO2	101	83	1	104
CC(=O)Nc1cccc(NC(=O)CSc2ccc(-c3sc(-c4ccccc4)nc3C)nn2)c1	24	30	.	110
COC(=O)c1[nH]c2sc3c(c2c1-n1cccc1)CCCC3	106	95	-8	105
Cc1cccn2cc(-c3ccc(Cl)cc3)cc12	109	80	-25	.
O=C1CCCN1c1ccc(S(=O)(=O)Nc2ccc(I)cn2)cc1	95	75	-24	99
CC(=O)NCCC(=O)Nc1c(C)cc(C)cc1C	100	97	-2	.
COc1ccc(-c2cc(C(=O)NCc3ccc(F)cc3)c3c(-c4ccc(F)cc4)[nH]nc3n2)cc1OC	105	67	.	98
Cc1cccn2c(=O)c3cc(C(=O)N(C)C)n(C)c3nc12	62	77	-77	.
Cc1ccc(-c2nn(-c3ccccc3)cc2C(=O)NCCN(C)C)cc1	112	94	-9	.
COc1cccc(CNC(=O)c2ccc3cnn(Cc4ccc(Cl)cc4)c3c2)c1	.	.	-27	101
CCOC(=O)COc1nc(-c2ccccc2)cc(-c2ccco2)c1C#N	112	85	30	104
O=C(COC(=O)c1cc(-c2cccs2)nc2ccccc12)c1ccc(Br)cc1	106	99	10	112
CC(C)c1cc(C(=O)O)c2cc(Br)ccc2n1	106	107	5	108
COc1cc(-c2cc(=O)c3cc(OCC(=O)O)ccc3o2)cc(OC)c1OC	92	97	2	101
O=C(C1CC1)N1CCc2cc(Br)cc(S(=O)(=O)NCCCN3CCCCC3)c21	112	87	-2	109
Cc1c(NC(=O)Cc2ccc(F)cc2)cccc1-c1nc2cccnc2s1	105	94	-9	103
Clc1ccc(CSc2ncn[nH]2)cc1	102&122	82&92	-9&-15	102&106
COCCNC(=O)C1c2ccccc2C(=O)N(CCOC)C1c1c[nH]c2ccccc12 (configuration not stated)	87	84	-33	99
Cc1ccc(C(C)C)c(Oc2cc(NC(=O)c3cnn4c3NC(c3ccc(Br)cc3)CC4C(F)(F)F)cc([N+](=O)[O-])c2)c1 (configuration not stated)	.	.	-25	94
CCCCC(C(=O)Nc1ccc(C)cc1C)N1C(=O)c2ccccc2C1=O (configuration not stated)	98	80	-16	100
CC(C)NC(=O)c1ccc2c(=O)n(C(C)C)c3nn(CC(=O)NC4CCCC4)c(=O)n3c2c1	.	.	-5	110
COc1ccc2c(c1)c(C(=O)O)c(C)n2-c1ccccc1	119	83	-11	.
CN(C)S(=O)(=O)N(CC(=O)NCC1CCCO1)c1ccccc1 (configuration not stated)	.	.	-24	103
COc1ccc(Cl)cc1C(=O)N1CCCC1C(=O)OCc1ccccc1 (configuration not stated)	95	94	-16	.
COc1ccc(OC)c(S(=O)(=O)N2CCC(c3ccncc3)CC2)c1	102	95	.	99
O=C1CN(C(=O)c2ccccc2)C(=S)N1	99	85	-22	100
O=C(/C=C/Sc1nc2ccccc2o1)c1ccccc1	84	71	-22	101
CC(=O)N(CCc1ccccc1)Cc1nc2ccccc2c(=O)[nH]1	97	77	-5	97
CCOc1ccc(CCNC(=O)CCc2cn(Cc3ccc(F)cc3)c3ccccc23)cc1	108	81	.	102
CCCC(=O)n1nc(C)c(S(=O)(=O)N2CCc3ccccc3C2)c1C	.	.	-8	106
CCCCN(C)C(=O)C1CCC(=O)N(c2cc(OC)c(OC)c(OC)c2)C1c1ccc(OC)cc1 (configuration not stated)	91	84	.	99
O=C(C1c2ccccc2C(=O)N2CCc3ccccc3C12)N1CCCC1 (configuration not stated)	93	83	.	108
CCSCCOC(=O)C1=C(C)NC2=C(C(=O)CCC2)C1c1cc(Br)c(O)c(OC)c1 (configuration not stated)	.	.	-36	101
CCOC(=O)c1c(C)sc(-c2c(-c3ccccc3)[nH]c3[nH]c(=O)[nH]c(=O)c23)c1O	113	97	2	152
Cc1ccc(Cl)cc1N1CCN(C(=O)c2ccc3c(=O)n4nc(Nc5ccccc5)sc4nc3c2)CC1	98	104	12	104
COc1ccccc1OCC(=O)Nc1cc(-c2ccc(C)cc2)no1	109	94	-25	101
CCOC(=O)c1[nH]nc(N)c1-c1cccc(OC)c1	110	101	-20	105
Cc1ccc2oc(=O)c3cc(C(=O)N4CCN(c5ccc(F)cc5)CC4)sc3c2c1	86	86	.	97

Continued.
SMILES	Sa growth 42C	Sa growth 42C second temp	HCMV NEC inh	GIV Gai3 FP
COc1ccc(NC(=O)C2CCN(S(=O)(=O)c3ccc4c(c3)CCCC(=O)N4)CC2)c(OC)c1	115	99	0	112&114
CCN(CC)c1nnc(-n2cccc2)s1	91	86	-5	98
CCOC(=O)C1=C(CSc2nc3scc(-c4cccs4)c3c(=O)[nH]2)NC(=O)NC1C (configuration not stated)	78	55	-31	.
Cc1ccc(S(=O)(=O)N(Cc2ccco2)c2nc3ccccc3nc2Cl)cc1	90	95	-13	.
O=C(COc1ccc(Br)cc1)N/N=C1\SCC(=O)N1c1ccc(F)cc1	82	114	11	94
O=S(=O)(Cc1ccccc1)N1CCCC1c1ccc(F)cc1 (configuration not stated)	.	.	-3	102
CC(C)C(NS(=O)(=O)c1cccs1)C(=O)Nc1nc(C(C)(C)C)cs1 (configuration not stated)	110	78	-2	103
Cc1nnc(SCC(=O)N2CCc3ccccc32)[nH]c1=O	105	83	-20	102
CCOc1ccc(S(=O)(=O)N2CCCCC2)cc1-c1nc2c(C(C)(C)C)nn(C)c2c(=O)[nH]1	90	94	-20	.
CCOC(=O)c1oc(-c2ccc(F)cc2)nc1C	83	83	-18	106
Cc1cc(/C=N/NC(=O)Cn2nnc(-c3ccccc3)n2)c(C)n1CC(C)C	74	94	-28	.
CCN(CC)c1ccc(C=Nc2ccc(C#N)cc2)cc1	106	96	-46	106
CC(=O)Nc1ccc(OC(=O)c2cccc(C)c2)cc1	102	103	5	105
O=C(NCCc1c[nH]c2ccccc12)c1nc[nH]c1C(=O)NCc1ccccn1	.	.	-22	103
COC(=O)c1c(NC(=O)COc2ccc(OC)cc2)sc2c1CCC(C)C2 (configuration not stated)	96	92	-34	103
COc1ccc(Oc2coc3cc(OC(C)C(=O)OC4CCCCC4)ccc3c2=O)cc1 (configuration not stated)	.	.	11	109

Some of the entries so far, with each value named:
CC(C)C(NS(=O)(=O)c1cccs1)C(=O)Nc1nc(C(C)(C)C)cs1 (configuration not stated)
  Sa growth 42C: 110
  Sa growth 42C second temp: 78
  HCMV NEC inh: -2
  GIV Gai3 FP: 103

CCOc1ccc(S(=O)(=O)N2CCCCC2)cc1-c1nc2c(C(C)(C)C)nn(C)c2c(=O)[nH]1
  Sa growth 42C: 90
  Sa growth 42C second temp: 94
  HCMV NEC inh: -20
  GIV Gai3 FP: .

Among those listed so far, 3 contain a COOH group:
SMILES	Sa growth 42C	Sa growth 42C second temp	HCMV NEC inh	GIV Gai3 FP
CC(C)c1cc(C(=O)O)c2cc(Br)ccc2n1	106	107	5	108
COc1cc(-c2cc(=O)c3cc(OCC(=O)O)ccc3o2)cc(OC)c1OC	92	97	2	101
COc1ccc2c(c1)c(C(=O)O)c(C)n2-c1ccccc1	119	83	-11	.

Screening results from PubChem.
